Rango complex inh: prevents formation of the Rango-importin beta complex | AID 540263 | Rango CFP/YFP FRET sensor + importin beta, 45 min | Q14974 | Potency, µM (doses to about 92.2 µM), for the others: at the highest dose inhibition of complex formation | 340,000 compounds, 0.031% hits; active = rising FRET ratio curve, often small or poorly fitted; inconclusive = mostly compound fluorescence or quenching in the first reads; inactive = flat curves in all reads;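 also: potency is read from the fitted curve at half-maximal effect; 0% = DMSO wells and 100% = buffer wells lacking importin beta; nearly all actives have a fitted effect of over 15% in size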
Target sequence (Q14974 whole entry, looked up): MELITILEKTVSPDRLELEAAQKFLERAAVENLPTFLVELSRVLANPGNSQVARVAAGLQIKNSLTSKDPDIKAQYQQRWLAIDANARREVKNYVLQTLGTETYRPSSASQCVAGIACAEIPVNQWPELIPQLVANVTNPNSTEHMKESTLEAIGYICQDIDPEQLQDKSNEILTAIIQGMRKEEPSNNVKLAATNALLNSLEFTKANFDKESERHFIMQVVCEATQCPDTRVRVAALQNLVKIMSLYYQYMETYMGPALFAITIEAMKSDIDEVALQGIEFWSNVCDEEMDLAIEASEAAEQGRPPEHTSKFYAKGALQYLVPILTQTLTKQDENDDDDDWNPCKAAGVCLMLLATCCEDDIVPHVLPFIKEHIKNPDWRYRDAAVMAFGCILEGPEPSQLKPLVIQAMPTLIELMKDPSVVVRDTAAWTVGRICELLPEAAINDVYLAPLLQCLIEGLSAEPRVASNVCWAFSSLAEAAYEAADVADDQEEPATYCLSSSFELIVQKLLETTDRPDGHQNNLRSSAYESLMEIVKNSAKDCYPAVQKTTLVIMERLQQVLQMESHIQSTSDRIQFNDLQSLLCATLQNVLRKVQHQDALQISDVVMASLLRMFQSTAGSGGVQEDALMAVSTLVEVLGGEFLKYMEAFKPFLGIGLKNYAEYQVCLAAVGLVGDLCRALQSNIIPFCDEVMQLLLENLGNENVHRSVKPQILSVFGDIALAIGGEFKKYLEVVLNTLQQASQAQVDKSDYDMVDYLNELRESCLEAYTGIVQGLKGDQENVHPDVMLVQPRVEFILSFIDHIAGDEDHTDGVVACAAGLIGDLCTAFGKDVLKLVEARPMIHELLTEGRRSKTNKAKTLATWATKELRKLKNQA
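Inhibition scored from the CFP 486 nm/YFP 530 nm FRET ratio 45 min after adding 0.125 microM importin beta to 50 nM Rango biosensor preincubated 5 min with compound (room temperature, PBS with DTT, Tween-20, BSA). No-importin wells as positive control.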
GLA inh pH 4.5: inhibitors of human alpha-galactosidase A at pH 4.5. purified enzyme, 4-MU-alpha-Gal fluorescence, pH 4.5. activity change, negative = inhibition, % at 105 µM. 230,000 tested, under 10 active; inconclusive = small, poorly fitted or top-dose-only inhibition, or a rising curve; inactive = flat fitted curve, though single readings scatter; no compound was filed as active;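 also: 0% = full activity with enzyme and -100% = basal without enzyme; dose as in the result columns while the protocol names 77 µM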
Rango dissoc inh: inhibition of RanGTP-driven Rango-importin beta dissociation | O95149+P62826 | AID 540253 | 340,000 compounds, 0.071% hits | Biochemical FRET Rango-importin beta, RanGTP-induced dissociation | Potency, µM (highest dose often 46.1 µM), for the others: at the top dose activity change, negative = inhibition; active means falling FRET ratio curve, often poorly fitted, with flat reads before Ran was added; inconclusive means other falling curves, or compound fluorescence or quenching; inactive means flat or rising ratio curve;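 also: potency is read from the fitted curve at half-maximal effect; % of control where 0% means no effect; nearly all actives have a fitted effect of over 45% in size; -100% = wells without RanGTP and RCC1; the record marks most hits as doubtful in a second field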
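Rango FRET biosensor (snurportin-1 IBB flanked by N-terminal EYFP and C-terminal CFP10) at 0.1 uM, with 0.25 uM importin beta in PBS, 1mM DTT, 0.02% Tween-20, 0.1% BSA. 0.6 uM Ran, 2mM GTP and 0.2 uM RCC1 were then added for 45 min at room temperature. Inhibition read as loss of FRET rise.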
miR-21 reporter: raises the signal of a miR-21 reporter | AID 2288 | 340,000 tested, under 10 active | HeLa miR-21 FLuc reporter, luciferase, 48 h | Potency, µM (top dose mostly 38.3 µM), without a hit: at the top dose reporter change, positive = more light; active = well fitted rising curve with a large enough effect; inconclusive = small, poorly fitted or top-dose-only effect; inactive = no such curve, though single readings can be large or run the other way;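 also: % of control where 0% means no effect; miR-21 action dims this reporter so a rising signal means less miR-21 action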
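Luminescence from a firefly luciferase reporter carrying a miR-21 binding site downstream, stably expressed under a CMV promoter in HeLa cells that make miR-21 endogenously, reports miRNA modulation after 48 h compound exposure up to approximately 40uM final.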
* marks the source's active call; other numbers are inactive results; ? = inconclusive; . = no result given; [ ] = remark or other dose. This is a subset; count on the stated rates, not on these rows.

no.	Molecule	Rango dissoc inh	miR-21 reporter	GLA inh pH 4.5	Rango complex inh
1	O=C1NC(=S)N/C1=C\c1cccnc1	-2%	10%	6	2.0%
2	Cc1cccc(NC(=O)C2CCN(c3nc(C)cc(C)n3)CC2)c1	1%	-1%	4	-1.6%
3	O=C(NNc1c(Cl)cccc1Cl)c1ccno1	-18%	-4%	-3	1.7%
4	Cc1nnc(SCC(=O)NC2CCCCC2)n1N	2%	.	.	4.7%
5	Cc1c(Cl)cccc1NC(=O)CN1CCN(CCN=CC2=C(O)CC(c3ccccc3)CC2=O)CC1 (stereo not given)	-21%	-3%	4	-1.4%
6	COc1ccc(S(=O)(=O)N2CCCCC2)cc1C(=O)N1CCCC1	-10%	1%	.	-2.0%
7	O=C(CSc1nc2c(c(=O)n1-c1ccccc1)SCC2)N1CCOCC1	-3%	-4%	-6	4.1%
8	Nc1cc[n+](CC(=O)c2ccc3c(c2)OCCO3)cc1	-1%	20%	-8	-3.8%
9	O=C(COC(=O)c1ccc(O)cc1O)NC(=O)c1ccccc1	1%	.	.	-2.4%
10	COc1ccc(NC(=O)c2cc3c(=O)n4ccccc4nc3n2C)c(OC)c1	?	-11%	2	?
11	N#CCCN(Cc1cccnc1)S(=O)(=O)c1ccc2ccccc2c1	4%	.	.	-1.4%
12	NC(=O)c1ccccc1NC(=O)Nc1ccc(F)c(Cl)c1	6%	-7%	9	2.7%
13	Cc1ccc(CSc2nnc(C)c(=O)n2N)cc1	-4%	-33%	1	-2.7%
14	CC(=O)c1ccc(N2CCN(C(=O)c3cc(-c4ccc5c(c4)OCO5)nc4ccccc34)CC2)cc1	23%	9%	-5	?
15	CCCCOC(=O)Cc1c(O)c2ccccc2[nH]c1=O	-7%	-6%	2	-3.5%
16	CN(Cc1c(F)cccc1Cl)C(=O)c1ccc2ccccc2n1	1%	-4%	.	-0.4%
17	O=C(NCCN1CCOCC1)C1CCC(CNS(=O)(=O)c2ccccc2)CC1 (stereo not given)	-9%	-12%	3	-0.6%
18	CC(Sc1ccccc1)C(=O)NCC1COc2ccccc2O1 (stereo not given)	-5%	.	.	-1.6%
19	CC(=O)Nc1cccc(-c2cn3ccc(C)cc3n2)c1	-11%	-27%	4	-2.9%
20	O=C(Nc1nnc(-c2ccc(Br)cc2)o1)c1cccc(N2C(=O)CCC2=O)c1	0%	.	.	2.1%
21	CN(C)C(CNC(=S)Nc1ccc(Cl)cc1)c1cccnc1 (stereo not given)	-13%	-4%	5	3.1%
22	O=C(NC1CCCC1)C(NS(=O)(=O)c1ccc(Br)s1)c1ccccc1 (stereo not given)	7%	0%	-3	0.5%
23	COC(=O)C1=C(C)Nc2c(c(=O)n(C)c(=O)n2C)C1c1cccs1 (stereo not given)	4%	0%	2	?
24	CN(C)N=Nc1nc2c(c(=O)n(C)c(=O)n2C)n1CC1CO1 (stereo not given)	-6%	0%	-7	0.3%
25	CCOC(=O)c1[nH]c2ccc(OC)cc2c1NC(=S)N1CCN(C(=O)OCC)CC1	12%	-5%	2[21.1 µM]	3.9%
26	Cc1ccc(C)c(S(=O)(=O)N2CCCCC2CCNC(=O)C(=O)NCCc2ccco2)c1 (stereo not given)	-18%	.	.	-0.6%
27	O=C(CSc1ccc2nnc(-c3cccnc3)n2n1)Nc1ccccc1C(F)(F)F	0%	0%	.	-4.0%
28	C=CCn1c(C)cc(C(=O)COC(=O)CNC(=O)c2ccccc2)c1C	10%	-17%	9	-3.5%
29	CCCNC(=O)C1CCN(S(=O)(=O)c2ccc3c(c2)OCCO3)CC1	0%	.	.	-2.4%
30	O=c1[nH]c(C2CCN(S(=O)(=O)c3ccc([N+](=O)[O-])cc3)CC2)nc2c1nnn2Cc1ccccc1	6%	1%	.	-1.0%

Continuation:
no.	Molecule	Rango dissoc inh	miR-21 reporter	GLA inh pH 4.5	Rango complex inh
31	CC1(C)CC(=O)C2=C(C1)N=C1SCCC(=O)N1C2c1ccccc1 (stereo not given)	-24%	-3%	-7	3.4%
32	O=C(NCc1ccncc1)C1CCN(S(=O)(=O)c2ccc(F)cc2)CC1	-19%	1%	.	2.7%
33	O=C(COC(=O)c1cccs1)Nc1ccc(F)c(F)c1	-26%	.	.	5.2%
34	COc1ccc(CN(CC2CCC(C(=O)O)CC2)C(=S)Nc2ccc(C)c(Cl)c2)cc1 (stereo not given)	17%	-5%	-1[21.1 µM]	4.8%
35	CCn1cc(C(=O)NC(C)C23CC4CC(CC(C4)C2)C3)cn1 (stereo not given)	5%	-10%	-1	2.7%
36	COc1ccc(NC(=O)c2cc3nc(-c4ccccc4)cc(-c4ccccc4)n3n2)c(OC)c1	-9%	-6%	-8	-1.3%
37	COC(=O)[C@]1(Cc2ccccc2)N[C@H](CN(C)C(=O)NC(C)C)[C@@H]2C(=O)N(Cc3ccccc3)C(=O)[C@@H]21	0%	.	.	2.9%
38	O=C(Cn1nnc(-c2cc(Cl)ccc2-n2cnnn2)n1)N1CCCc2ccccc21	-2%	-2%	-7	-6.8%
39	COc1ccc(S(=O)(=O)NC2CC2)cc1Br	-11%	-6%	.	-2.1%
40	O=C(CSc1nc2ccccc2c(=O)n1CCCN1CCOCC1)NC12CC3CC(CC(C3)C1)C2	24%	-15%	-14	-1.9%
41	NS(=O)(=O)c1ccc(CCNCc2cc(Br)ccc2OCc2ccccc2F)cc1	-8%	19%	-11	-0.6%
42	CC(=O)CSc1ncnc2c1cnn2-c1ccccc1	-2%	-53%	.	?
43	CCCCNC(=S)NNC(=O)c1c(C)nc2ccccn12	-10%	-1%	0	-3.0%
44	CC(C)(C)NC(=O)CN(C(=O)CS(=O)CC(=O)Nc1ccc(F)cc1)c1ccc(Cl)cc1 (stereo not given)	-12%	-9%	-3	4.1%
45	CCCCn1c(N)c(N(CC(C)C)C(=O)c2c(CC)noc2C)c(=O)[nH]c1=O	16%	.	.	4.7%
46	CS(=O)(=O)Nc1ccc(C(=O)N2CCN(c3ccccc3F)CC2)cc1	-5%	0%	6	-3.0%
47	Cc1ccc(N=C2NC(=O)/C(=C/c3cccn3C)S2)cc1C	-24%	-18%	-4	?
48	COc1cccc2sc(NNC(=O)c3nc4ccccc4s3)nc12	-25%	16%	-4	?
49	CSc1nc(-c2ccc(F)cc2)cc(=O)[nH]1	-3%	-9%	-4	0.8%
50	O=C(NCc1ccco1)c1ccc2c(=O)n(CCC3=CCCCC3)c(=O)[nH]c2c1	1%	-3%	2	-2.1%
51	CCOC(=O)Nc1ccc2c(c1)N(C(=O)N1CCN(C)CC1)c1ccccc1CC2	15%	-22%	-1	0.6%
52	O=C(NC1CCN(C(=O)Nc2ccc(F)cc2)CC1)c1ccccc1F	-16%	-1%	.	0.0%
53	CC(=O)Nc1cccc(/C(C)=N/Nc2nc3ccccc3s2)c1	-11%	-28%	-24	-2.0%
54	Cc1ccnc(NC(=O)CCC(=O)N(CC(=O)NCCc2ccccc2)Cc2ccco2)c1	3%	-1%	1	-1.6%
55	Cc1ccc(S(=O)(=O)NCCC(=O)NCCCSc2ccccc2)cc1	1%	.	.	-2.5%
56	Cc1cc(NC(=O)Cn2nnc(-c3ccccc3NC(=O)c3ccccc3F)n2)no1	30%	-8%	.	-4.6%
57	Cc1ccc(/C=N/NC(=O)C(NC(=O)c2ccccc2)c2n[nH]c(=O)c3ccccc23)cc1 (stereo not given)	9%	-41%	1	-0.6%
58	O=C(O)CCc1ccc(-c2ccc(Br)cc2)n1-c1cccc(O)c1	-8%	1%	.	2.0%
59	Cc1cc(Oc2ccccc2)nc(OCC#N)n1	0%	-8%	11	1.3%
60	N#Cc1c(N)nc(N)nc1Nc1ccc(Br)cc1	3%	-46%	-1	4.9%

New compounds follow.
no.	Molecule	Rango dissoc inh	miR-21 reporter	GLA inh pH 4.5	Rango complex inh
61	CCOC(=O)Nc1sc(NS(=O)(=O)c2ccccc2)nc1C	1%	-5%	-7	-2.6%
62	COc1ccc(C(c2c(O)nc(SC)n(C)c2=O)c2c(O)nc(SC)n(C)c2=O)cc1O	-3%	-5%	4	-0.5%
63	O=[N+]([O-])c1cc(Br)c2nsnc2c1N1CCOCC1	0%	3%	.	0.4%
64	CCCCCn1c(N(C)Cc2ccccc2)nc2c1c(=O)[nH]c(=O)n2C	25%	1%	-1	-4.9%
65	COc1ccccc1C(=O)NCCC(=O)N1CCN(S(=O)(=O)c2cccc(Cl)c2)CC1	5%	.	.	-0.5%
66	Cc1ccc(-c2nc(NC(=O)c3nn(C)cc3[N+](=O)[O-])sc2C)cc1C	1%	14%	3	3.1%
67	CCCCNc1nc2ccccc2n1CC(=O)N1CCc2ccccc2C1	11%	-14%	0	-2.4%
68	O=C1c2ccccc2NC(c2ccccn2)N1c1ccc(Cl)cc1 (stereo not given)	-2%	-45%	-8	0.5%
69	O=C(NCCCn1ccnc1)c1cc(C(=O)C2CCCCC2)c[nH]1	-11%	-2%	2	-3.5%
70	COc1ccc(CCNC(=O)COc2coc(CN3c4ccccc4CC3C)cc2=O)cc1OC (stereo not given)	13%	.	.	2.9%
71	CCCCNC(=O)CNC(=S)N(Cc1ccccc1F)C1CCCCC1	7%	8%	-2	-4.7%
72	O=c1[nH]c(SCc2ccccc2F)nc2ccccc12	3%	-27%	7	0.1%
73	CCN(CC(=O)Nc1ccc2c(c1)OCCO2)C(=O)c1ccc(C(F)(F)F)cc1	-11%	.	.	-3.2%

Molecules above that have an NH in an aromatic ring (ten):
no.	Molecule	Rango dissoc inh	miR-21 reporter	GLA inh pH 4.5	Rango complex inh
15	CCCCOC(=O)Cc1c(O)c2ccccc2[nH]c1=O	-7%	-6%	2	-3.5%
25	CCOC(=O)c1[nH]c2ccc(OC)cc2c1NC(=S)N1CCN(C(=O)OCC)CC1	12%	-5%	2[21.1 µM]	3.9%
30	O=c1[nH]c(C2CCN(S(=O)(=O)c3ccc([N+](=O)[O-])cc3)CC2)nc2c1nnn2Cc1ccccc1	6%	1%	.	-1.0%
45	CCCCn1c(N)c(N(CC(C)C)C(=O)c2c(CC)noc2C)c(=O)[nH]c1=O	16%	.	.	4.7%
49	CSc1nc(-c2ccc(F)cc2)cc(=O)[nH]1	-3%	-9%	-4	0.8%
50	O=C(NCc1ccco1)c1ccc2c(=O)n(CCC3=CCCCC3)c(=O)[nH]c2c1	1%	-3%	2	-2.1%
57	Cc1ccc(/C=N/NC(=O)C(NC(=O)c2ccccc2)c2n[nH]c(=O)c3ccccc23)cc1 (stereo not given)	9%	-41%	1	-0.6%
64	CCCCCn1c(N(C)Cc2ccccc2)nc2c1c(=O)[nH]c(=O)n2C	25%	1%	-1	-4.9%
69	O=C(NCCCn1ccnc1)c1cc(C(=O)C2CCCCC2)c[nH]1	-11%	-2%	2	-3.5%
72	O=c1[nH]c(SCc2ccccc2F)nc2ccccc12	3%	-27%	7	0.1%

Individual results from above:
Rango complex inh with CCCNC(=O)C1CCN(S(=O)(=O)c2ccc3c(c2)OCCO3)CC1 = -2.4%
Rango complex inh with NC(=O)c1ccccc1NC(=O)Nc1ccc(F)c(Cl)c1 = 2.7%
